# Source: PubChem (National Center for Advancing Translational Sciences (NCATS))
# GLA inh pH 4.5: blocks human alpha-galactosidase A at pH 4.5 | P06280 | purified enzyme, 4-MU-alpha-Gal fluorescence, pH 4.5 | activity change, negative = inhibition, % at 105 µM | 230,000 tested, under 10 active; inconclusive = small, poorly fitted or top-dose-only inhibition, or a rising curve; inactive = flat fitted curve, though single readings scatter; no compound was filed as active;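 note: 0% = full activity with enzyme and -100% = basal without enzyme; dose as in the result columns while the protocol names 77 µM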
# miR-21 reporter: miR-21 reporter, rising signal; HeLa miR-21 FLuc reporter, luciferase, 48 h; Potency, µM (top dose mostly 38.3 µM), without a hit: at the top dose reporter change, positive = more light; 340,000 tested, under 10 active; active = well fitted rising curve with a large enough effect; inconclusive = small, poorly fitted or top-dose-only effect; inactive = no such curve, though single readings can be large or run the other way;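 note: % of control where 0% means no effect; miR-21 action dims this reporter so a rising signal means less miR-21 action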
#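 Using DMEM plus 10% FBS, HeLa miR-21-FLuc cells are incubated with test compounds (final up to about 40uM) for 48 hours; firefly luciferase signal is then imaged following reagent-mediated lysis.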
# Rango-impB inh: Rango-importin beta binding inhibition; Rango CFP/YFP FRET sensor + importin beta, 45 min; Q14974; actives 0.031% (n = 340,000); Potency, µM (doses to about 92.2 µM), for inactives: at the top dose inhibition of complex formation; active = rising FRET ratio curve, often small or poorly fitted; inconclusive = mostly compound fluorescence or quenching in the first reads; inactive = flat curves in all reads;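 note: potency is the fitted concentration of half-maximal effect; 0% = DMSO wells and 100% = buffer wells lacking importin beta; nearly all actives have a fitted effect of over 15% in size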
# Target sequence (Q14974 whole entry, looked up): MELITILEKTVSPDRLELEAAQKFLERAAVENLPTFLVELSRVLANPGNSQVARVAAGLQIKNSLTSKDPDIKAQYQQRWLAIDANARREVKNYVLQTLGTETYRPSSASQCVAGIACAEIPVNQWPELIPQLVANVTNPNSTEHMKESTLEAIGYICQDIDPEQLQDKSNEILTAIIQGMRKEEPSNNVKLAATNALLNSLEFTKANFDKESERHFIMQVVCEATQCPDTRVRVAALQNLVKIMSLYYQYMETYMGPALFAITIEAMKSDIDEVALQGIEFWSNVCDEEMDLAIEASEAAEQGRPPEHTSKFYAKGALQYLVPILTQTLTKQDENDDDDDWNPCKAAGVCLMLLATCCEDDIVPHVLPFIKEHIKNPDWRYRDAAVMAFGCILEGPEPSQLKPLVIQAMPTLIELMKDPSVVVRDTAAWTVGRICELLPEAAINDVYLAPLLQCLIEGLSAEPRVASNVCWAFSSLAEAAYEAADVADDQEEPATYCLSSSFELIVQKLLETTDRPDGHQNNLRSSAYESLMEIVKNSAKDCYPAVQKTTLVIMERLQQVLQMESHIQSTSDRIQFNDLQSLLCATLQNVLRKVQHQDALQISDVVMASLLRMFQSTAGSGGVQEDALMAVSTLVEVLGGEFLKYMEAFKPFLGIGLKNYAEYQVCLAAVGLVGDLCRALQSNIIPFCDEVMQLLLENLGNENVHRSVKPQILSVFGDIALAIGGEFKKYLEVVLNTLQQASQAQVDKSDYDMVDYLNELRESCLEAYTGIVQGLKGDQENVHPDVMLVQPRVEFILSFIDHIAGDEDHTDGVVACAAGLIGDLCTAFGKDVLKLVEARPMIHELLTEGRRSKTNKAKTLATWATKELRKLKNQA
#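 Inhibition scored from the CFP 486 nm/YFP 530 nm FRET ratio 45 min after adding 0.125 microM importin beta to 50 nM Rango biosensor preincubated 5 min with compound (room temperature, PBS with DTT, Tween-20, BSA). No-importin wells as positive control.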
# Rango release inh: prevents RanGTP from dissociating the Rango-importin beta complex | Potency, µM (series often up to 46.1 µM), for inactives: top-dose activity change, negative = inhibition | Biochemical FRET Rango-importin beta, RanGTP-induced dissociation | actives 0.071% (n = 340,000) | AID 540253 | O95149+P62826; active means falling FRET ratio curve, often poorly fitted, with flat reads before Ran was added; inconclusive means other falling curves, or compound fluorescence or quenching; inactive means flat or rising ratio curve;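 note: potency is the fitted concentration of half-maximal effect; % of control where 0% means no effect; nearly all actives have a fitted effect of over 45% in size; -100% = wells without RanGTP and RCC1; the record marks most hits as doubtful in a second field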
#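 Two FRET readings bracket the reaction: one 5 min after compound meets Rango–importin beta, another 45 min after RanGTP-RCC1 (0.6 uM Ran, 0.2 uM RCC1, 2 mM GTP) is added. Only the second defines inhibition.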
# Numbers without * were called inactive; ? = inconclusive; . = no result given; & = joins results of further samples. A portion of the library; count on the stated rates, not on these rows.
# Each structure is followed by: GLA inh pH 4.5	miR-21 reporter	Rango-impB inh	Rango release inh
- CC(C)C(=O)NC(c1ccccc1Cl)c1c(O)ccc2ccccc12 (stereo not given)
    6	-4%	-2.2%	-5%
- COc1ccc(NS(=O)(=O)c2cccc(C(=O)NNC(=O)c3ccc(Br)o3)c2)cc1
    .	.	-3.9%	13%
- COc1ccc(-c2cc(=O)c3cc(F)ccc3[nH]2)cc1
    -7&2	-19%	2.3%	-1%
- O=C(Nc1ccc(C2=NCCN2)cc1)c1ccc(Cl)c(C(=O)Nc2ccc(C3=NCCN3)cc2)c1
    -2	0%	.	.
- O=C(Nc1ccc(NC(=O)C2CCCCC2)cn1)c1ccco1
    -9	22%	0.0%	11%
- Cc1ccc(Cn2ccc(NC(=O)c3noc4c3CCCC4)n2)cc1
    3	-15%	0.3%	-9%
- NC(=O)c1nsc(C(=O)N(CCc2ccccc2)C(C(=O)NC2CCCC2)c2ccco2)c1N (stereo not given)
    2	5%	-0.8%	5%
- NS(=O)(=O)c1ccc(CCNC(=O)C2CCN(S(=O)(=O)c3c(Cl)cccc3Cl)CC2)cc1
    4	-1%	-3.3%	-6%
- COc1cc(NC(=O)COC(=O)/C=C/c2ccc(OC)c(OC)c2)cc(OC)c1
    -7	-1%	3.6%	-22%
- CCOC(=O)/C(C#N)=C/c1c[nH]c2ccccc12
    0&7	-40%&-52%	?	-16%
- CC(C)C(NC(=O)CCN1C(=O)c2ccccc2C1=O)c1ccccc1 (stereo not given)
    .	-1%	2.0%	2%
- Fc1cccc2sc(Nc3nnc(-c4ccco4)o3)nc12
    1	-26%	-2.0%	8%
- C=CCCN(C(C(=O)OC)C(C)C)S(=O)(=O)c1ccccc1Br (stereo not given)
    -2	12%	-4.3%	8%
- Cc1c(NS(=O)(=O)c2cccc(C(=O)N3CCCC3)c2)c(=O)n(-c2ccccc2)n1C
    .	.	-0.6%	8%
- Cc1cc(C)cc(-n2c(SCC(=O)Nc3cccc(S(=O)(=O)NC4=NCCCCC4)c3)nc3ccccc3c2=O)c1
    2	-4%	-1.4%	-14%

# (more compounds)
# Each structure is followed by: GLA inh pH 4.5	miR-21 reporter	Rango-impB inh	Rango release inh
- COc1cccc(NC(=O)c2oc3ccc(S(=O)(=O)N4CCOCC4)cc3c2C)c1
    -7	22%&24%	-1.4%	-2%
- COc1ccc(CNC(=O)C[C@H]2C[C@H](C(=O)N3CCOCC3)[C@@]3(C)c4[nH]c5cc(-c6ccco6)ccc5c4CCN3C2=O)cc1OC
    .	.	1.4%	-17%
- Cc1ccc(C)c(N2CCN(C(=O)CCNC(=O)Cn3ccc4ccccc4c3=O)CC2)c1
    1	-4%	-3.3%	13%
- O=C(Cn1nc2ccccc2n1)N/N=C/c1cc([N+](=O)[O-])ccc1O
    -11	3%	0.0%	-6%
- Cc1ccc(C(=O)N/C(=C\c2cn(-c3ccccc3)nc2-c2ccccc2)C(=O)N2CCOCC2)cc1
    0	-1%	-3.7%	-7%
- CCCC(=O)Nc1nnc(S(=O)(=O)N(CC)c2ccccc2)s1
    .	-1%	0.8%	1%
- CO[C@@]1(NC(=O)C2SC(=C(C(N)=O)C(=O)O)S2)C(=O)N2C(C(=O)O)=C(CSc3nnnn3C)CS[C@@H]21 (stereo not given in full)
    .	.	4.8%	8%
- CCC(C)NC(=O)C1CCN(S(=O)(=O)c2cccnc2)CC1 (stereo not given)
    4	4%	-0.4%	4%
- CCN(C(=O)c1ccc2c(=O)n3c(nc2c1)CCCCC3)c1ccc(F)cc1
    .	0%	-0.6%	10%
- CN(Cc1ccsc1)C(=O)CCc1nnc(Cc2c[nH]c3ccccc23)o1
    3	-1%	-2.0%	-15%
- COc1ccccc1C(=O)N(C)CC(=O)Nc1ccc(N2CCOCC2)cc1
    .	.	5.5%	-2%
- O=C(COC(=O)/C=C/c1ccc([N+](=O)[O-])cc1)NC(c1ccccc1)c1ccccc1
    -8	2%	-1.5%	3%
- O=C(Cn1nnc2ccccc21)c1ccccc1
    3	-28%	0.0%	2%
- O=C(COc1ccc(Cl)cc1)NNC(=O)CSc1nncs1
    -8	3%	2.6%	-11%
- Cc1cc(N/N=C/c2ccc(Cl)cc2)nc(NCc2ccccc2)n1
    0	0%	-1.1%	14%

# Further records
# Each structure is followed by: GLA inh pH 4.5	miR-21 reporter	Rango-impB inh	Rango release inh
- COC(=O)c1sc2ccccc2c1NC(=O)c1ccc(S(=O)(=O)N2CCCC(C)C2)cc1 (stereo not given)
    4	-8%	-0.8%	8%
- O=C(Nc1ccccc1)N1CCCC(c2nc(-c3ccc(F)cc3)no2)C1 (stereo not given)
    5	-16%	1.4%	11%
- COc1ccc(/C=C(\NC(=O)c2ccc(C)cc2)C(=O)NCCCn2ccnc2)cc1
    .	-1%	-0.1%	-7%
- COc1cccc(-c2nc(C#N)c(N3CCN(C(=O)c4ccco4)CC3)o2)c1
    .	0%	2.3%	5%
- COc1ccc(Cc2noc(COc3ccc(Cl)cc3)n2)cc1
    1	7%	-1.5%	-3%
- CC1CCN(C(=O)C(NS(=O)(=O)c2cccc3nsnc23)C(C)C)CC1 (stereo not given)
    .	1%	-3.8%	10%
- COC(=O)c1cc(=O)n(Cc2ccco2)c(=Nc2ccc(F)cc2)s1
    2	4%	0.5%	-17%
- Cc1cc2ccccc2c(=O)n1CC(=O)NCc1ccco1
    -4	0%	-1.0%	-11%
- COc1ccccc1S(=O)(=O)Cc1ccc(C(=O)NC2CCCCC2)o1
    6	-3%	-3.7%	-16%
- CC1=C(C(=O)NCc2ccccc2)C(c2cccs2)NC(=S)N1 (stereo not given)
    -2	0%	-0.1%	1%
- CN(C)C(=O)CCc1ccc2c3c([nH]c2c1)[C@]1(CCc2ccccc2)[C@@H](C(=O)N2CCCCC2)C[C@H](CC(=O)NCCc2ccccn2)C(=O)N1CC3
    .	.	0.1%	-3%
- Cc1cccc(Cc2cccc(C)c2O)c1O
    .	.	14%	3%
- COc1ccc(/C=C(/NC(=O)c2ccccc2)C(=O)N2CCCCC2)cc1
    .	-6%	4.5%	20%
- Cc1cc(=O)[nH]c(SCC(=O)N2C(C)CCCC2C)n1 (stereo not given)
    .	1%	5.7%	7%
- CCCC(C)NC(=O)CSc1nc2ccc(C)cc2[nH]1 (stereo not given)
    -5	0%	1.8%	0%

# The list goes on.
# Each structure is followed by: GLA inh pH 4.5	miR-21 reporter	Rango-impB inh	Rango release inh
- Cc1ccc(S(=O)(=O)NC2(C(F)(F)F)C(=O)Nc3c2c(=O)n(C)c(=O)n3C)cc1 (stereo not given)
    2	-3%	1.8%	1%
- CC1(CC(=O)N/N=C/c2ccc(-c3cccc(C(F)(F)F)c3)o2)OCCO1
    1	-2%	1.1%	0%
- CCCc1cc(=O)[nH]c2nnc(SCC(=O)Nc3ccc(C(C)=O)cc3)n12
    .	.	-2.0%	15%
- CC(Oc1ccccc1)C(=O)N=C1SC2CS(=O)(=O)CC2N1c1cccc(F)c1 (stereo not given)
    .	-7%	7.4%	-4%
- COCCn1nnnc1C(c1ccccn1)N1CCN(c2cc(Cl)ccc2C)CC1 (stereo not given)
    0	0%	-3.3%	2%
- COc1ccc(CC(=O)Nc2nnc(C(C)C)s2)cc1
    -4	-20%	-6.0%	10%
- COc1ccc(C2=NN(CN3C(=O)C(=O)c4ccccc43)C(c3ccc(Br)cc3)C2)cc1 (stereo not given)
    -1	-35%	6.9%	-9%
- COc1ccccc1S(=O)(=O)N1CCN(S(=O)(=O)c2ccccc2C#N)CC1
    .	-1%	-1.3%	1%
- COc1ccc([N+](=O)[O-])cc1NC(=O)CCNC(=O)Cn1ccc2ccccc2c1=O
    0	-2%	-3.7%	34%
- Cc1ccc2c(c1)N(C(=O)CCC(=O)NCCCN1CCOCC1)CC(C)O2 (stereo not given)
    .	-1%	2.0%	10%
- COC(=O)c1ccc(C23CC4(C2)[C@H](CN(Cc2ccc(C(F)(F)F)cc2)[C@@H]4c2ccccc2)C3c2ccc(C(F)(F)F)cc2)cc1 (stereo not given in full)
    6&-2	3%	.	.
- CCOC(=O)c1cc(-c2ccccc2)nc2nc(N3CCCCC3)sc12
    ?	-3%	?	-14%
- CCOC(=O)N1CCC(NC(=O)c2cc(-c3ccc(F)cc3)[nH]c2C)CC1
    -11	-1%	0.8%	6%
- CC(OC(=O)c1cccc(-n2cnnn2)c1)C(=O)Nc1ccc(N(C)C)cc1 (stereo not given)
    .	.	-0.4%	16%
- COc1ccc(Cl)cc1NC(=O)CN(C)CC(=O)NCc1ccc(F)cc1
    .	.	-2.2%	7%

# Remaining list, next part.
# Each structure is followed by: GLA inh pH 4.5	miR-21 reporter	Rango-impB inh	Rango release inh
- CCCCOc1ccccc1Cn1c(=O)oc2ccc(C)cc21
    0	-9%	0.3%	-1%
- CN(C)c1cccc(C(=O)NCCCn2ccc3ccccc32)c1
    .	-16%	1.7%	-8%
- Cc1ccc(C2CC(c3ccccc3)=NN2C(=S)Nc2ccccc2)o1 (stereo not given)
    6	15%	-1.5%	?
- O=C(Nc1ccccc1)OCCN1CCOCC1
    .	.	1.7%	7%
- CS(=O)(=O)N(CC(=O)N1CCCCCC1)c1cc(Cl)ccc1Cl
    .	-3%	-1.2%	9%
- Cc1cc(=O)oc2cc(NS(=O)(=O)c3ccccc3)ccc12
    ?	-47%	-11%	16µM*
- COc1ccc(CCn2nc(C)c([N+](=O)[O-])c2C)cc1
    .	-64%	-2.7%	-12%
- CC1(C)CC(=O)C(CC2C(=O)CC(C)(C)CC2=O)C(=O)C1
    -3	0%	1.2%	1%
- Cc1ccsc1-c1n[nH]c(=S)n1C1CCCCC1
    -1	-5%	3.6%	2%
- O=C(O)C1CCCCC1C(=O)Nc1ccc(S(=O)(=O)N2CCOCC2)cc1 (stereo not given)
    .	.	-1.6%	1%
- CCN(CC(=O)Nc1ccccc1C(F)(F)F)C(=O)c1ccc(N2C(=O)CCC2=O)cc1
    .	0%	1.1%	4%
- O=C1NC(=S)N/C1=C\C=C\c1ccccc1
    2	-35%	-0.3%	20%
- Cc1ccc2c(c1)N(CCC(=O)NCc1ccccn1)C(=O)CO2
    4	-4%	?	11%
- N#Cc1c2c(c(NCCCN3CCOCC3)n3c1nc1ccccc13)CCC2
    13	1%	?	?
- CC(C)C(C)NC(=O)CN1C(=O)NC2(CCc3ccccc32)C1=O (stereo not given)
    .	-2%	-0.3%	-9%

# A different layout for four compounds above:
mol	GLA inh pH 4.5	miR-21 reporter	Rango-impB inh	Rango release inh
CCCCOc1ccccc1Cn1c(=O)oc2ccc(C)cc21	0	-9%	0.3%	-1%
CN(C)c1cccc(C(=O)NCCCn2ccc3ccccc32)c1	.	-16%	1.7%	-8%
Cc1ccc(C2CC(c3ccccc3)=NN2C(=S)Nc2ccccc2)o1 (stereo not given)	6	15%	-1.5%	?
O=C(Nc1ccccc1)OCCN1CCOCC1	.	.	1.7%	7%

# Further entries follow.
# Each structure is followed by: GLA inh pH 4.5	miR-21 reporter	Rango-impB inh	Rango release inh
- CC(=O)Nc1nc2c(ncn2COCCOC(C)=O)c(=O)[nH]1
    -6	1%	.	.
- CN1CC(=O)N(CC(=O)Nc2ccc(N3CCOCC3)cc2)C1=O
    .	.	-5.5%	53%
- Cc1ccc(S(=O)(=O)N2CCN(C(=O)Cn3nc(C(=O)O)c4ccccc4c3=O)CC2)cc1
    -4	-2%	-0.6%	-2%
- COc1ccc(NCN2C(=O)CCC2=O)cc1
    1	-11%	1.3%	6%
- CC(C)(C)c1ccc(C(=O)Nc2c3c(nn2C(C)(C)C)CS(=O)(=O)C3)cc1
    .	-5%	0.1%	0%

# Structural class: those above with a nitro group on carbon (4)
# Each structure is followed by: GLA inh pH 4.5	miR-21 reporter	Rango-impB inh	Rango release inh
- O=C(Cn1nc2ccccc2n1)N/N=C/c1cc([N+](=O)[O-])ccc1O
    -11	3%	0.0%	-6%
- O=C(COC(=O)/C=C/c1ccc([N+](=O)[O-])cc1)NC(c1ccccc1)c1ccccc1
    -8	2%	-1.5%	3%
- COc1ccc([N+](=O)[O-])cc1NC(=O)CCNC(=O)Cn1ccc2ccccc2c1=O
    0	-2%	-3.7%	34%
- COc1ccc(CCn2nc(C)c([N+](=O)[O-])c2C)cc1
    .	-64%	-2.7%	-12%
